D2 agonist: activates the human D2 dopamine receptor; P14416; DiscoveRx PathHunter D2 beta-arrestin, luminescence, 90 min; 100% = 57 uM dopamine signal; activation, % (concentration not given with the values); 0.084% of 360,000 active; in the data active = activation above about 40%; inconclusive = about 15% to 40%; inactive = below about 15%; further: compound concentration not given in the record; the text of the record calls up to 30% inactive
Target sequence (P14416 whole entry, looked up): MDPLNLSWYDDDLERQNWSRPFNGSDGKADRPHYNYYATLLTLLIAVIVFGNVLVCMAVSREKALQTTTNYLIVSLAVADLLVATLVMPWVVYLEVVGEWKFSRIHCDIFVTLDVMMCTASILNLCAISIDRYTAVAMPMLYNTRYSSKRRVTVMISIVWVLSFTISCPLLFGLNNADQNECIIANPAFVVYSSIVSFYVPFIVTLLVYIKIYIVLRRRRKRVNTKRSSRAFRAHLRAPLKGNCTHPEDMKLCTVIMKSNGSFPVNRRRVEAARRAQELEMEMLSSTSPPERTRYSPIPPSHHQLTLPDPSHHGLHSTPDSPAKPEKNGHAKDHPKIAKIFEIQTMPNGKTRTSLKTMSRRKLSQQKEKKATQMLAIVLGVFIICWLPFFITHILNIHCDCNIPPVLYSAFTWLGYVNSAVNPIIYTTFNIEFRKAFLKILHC
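Agonist mode: compounds alone added to overnight-plated D2 PathHunter cells for 90 min at 37 C, with 57 uM final dopamine (EC100) defining full response. Beta-arrestin recruitment detected by chemiluminescent reagent, read after 1 h at ambient temperature.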
CtBP-E1A inh: blocks the CtBP interaction with E1A; AlphaScreen GST-E1A/His-CtBP binding, 1536-well; stronger effect = lower value; control for the full effect not named in the record; activity change, % (concentration not given with the values); AID 651724; 0.49% of 340,000 active; in the data active means activity change below about -65%; inconclusive means about -30% to -65%; inactive means above about -30%; further: on the % scale 0 is the no-effect control and ±100 the full control effect
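Steps: dispense buffer (Tris pH 8.0, NaCl 300 mM, TCEP 1 mM, BSA, Tween 20); add 5X protein mix (GST-E1A, His-CtBP, 125 nM each); pin 23 nL compound; 2 h at 37 °C, dark; add 5X beads (50 ug/mL); 1 h; read.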
TRPML1 inh: human mucolipin-1 channel inhibition. Q9GZU1. TRPML1-inducible cells, Ca2+ dye fluorescence, FDSS; stronger effect = lower value; inhibition of EC80 agonist-evoked calcium signal. activity change, negative = inhibition, % (concentration not given with the values). 0.02% of 390,000 active. AID 624415; in the data active means activity change below about -50%; inconclusive means about -30% to -50%; inactive means above about -30%;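 further: stimulus is agonist 54-4 at its EC80 concentration; on the % scale 0 is the no-effect control and ±100 the full control effect; compound concentration not given in the record; the text of the record puts the active cut at -80%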
Target sequence (Q9GZU1 whole entry, looked up): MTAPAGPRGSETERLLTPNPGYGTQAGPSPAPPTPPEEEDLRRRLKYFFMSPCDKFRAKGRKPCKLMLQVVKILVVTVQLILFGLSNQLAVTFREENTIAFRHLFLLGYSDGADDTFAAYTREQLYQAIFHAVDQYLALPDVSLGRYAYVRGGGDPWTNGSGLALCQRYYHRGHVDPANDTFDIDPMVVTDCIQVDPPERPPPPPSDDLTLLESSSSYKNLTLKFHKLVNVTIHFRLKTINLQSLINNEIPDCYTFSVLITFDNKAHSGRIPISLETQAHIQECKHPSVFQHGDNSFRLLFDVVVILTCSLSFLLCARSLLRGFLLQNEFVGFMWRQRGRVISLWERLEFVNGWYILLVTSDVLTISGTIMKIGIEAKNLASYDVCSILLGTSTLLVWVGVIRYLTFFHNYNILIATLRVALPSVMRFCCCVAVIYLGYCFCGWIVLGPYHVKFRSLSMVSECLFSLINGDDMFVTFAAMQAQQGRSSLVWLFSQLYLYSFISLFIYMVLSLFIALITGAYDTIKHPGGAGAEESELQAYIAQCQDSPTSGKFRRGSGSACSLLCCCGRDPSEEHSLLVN
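TRPML1-DL cells, Tet-induced overnight (~16 h, 37 °C) at 1,500 cells/well, were loaded with Ca8 no-wash dye plus quencher for 45-90 min at room temperature. Compounds were pinned during FDSS kinetic reading; agonist 54-4 at EC80 (4 uM final) then added.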
Six1-Eya2 inh: blocks human Six1 binding to Eya2; Q15475+O00167; AlphaScreen GST-Six1/His-Eya2 binding, biochemical; stronger effect = lower value; control for the full effect not named in the record; activity change, % (concentration not given with the values); 0.56% of 360,000 active; AID 651725; in the data active = activity change below about -65%; inconclusive = about -30% to -65%; inactive = above about -30%; further: on the % scale 0 is the no-effect control and ±100 the full control effect
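GST-Six1 + His-Eya2 (5X stock: 250/500 nM); Tris pH 8.0, 300 mM NaCl, 0.05% BSA, 0.02% Tween 20; GSH donor/Ni acceptor beads; 1 h 37 °C dark; AlphaScreen readout.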
TRPML1 agonist: agonists of human TRPML1 channel | TRPML1-expressing cells, Ca2+ dye fluorescence, FDSS; host cell line not named in the record; reference of the full effect not given here | activation, % (no concentration beside the values) | 0.12% of 410,000 active; in the data active = activation above about 50%; inconclusive = about 30% to 50%; inactive = below about 30%; further: 0% is about no effect; the text of the record puts the active cut at 80%
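Kinetic FDSS Ca2+ read in Tet-induced TRPML1-DL cells (ABD Ca8 dye plus quencher, 45-90 min RT loading): baseline, then compound, then 110 s agonist window; EC80 agonist 54-4 at 4uM final added afterwards for a 110 s antagonist window.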
PINK1 modulator: modulators of PINK1 expression | PINK1 immunofluorescence, high-content cytometry, 24 h | Potency, µM (highest dose often 76.6 µM), for the others: at the top dose activation (PINK1 increase), usual class: activators | 0.2% of 410,000 active; active = well fitted activation curve with a large enough effect; inconclusive = small, poorly fitted or top-dose-only effect; inactive = flat fitted curve, though single readings scatter; cell line not stated here;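 further: potency means the concentration at half of the fitted maximal effect; % of control where 0% means no effect; nearly all actives have a fitted effect of over 65% in size; a mitochondrial uncoupler was the plate control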
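Cells are seeded, rested 12 hours, then given compound at five concentrations or DMSO for 24 hours. After fixation, blocking and antibody staining, PINK1 amount and mitochondrial localization are scored; CCCP serves as control.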
* = called active by the depositor; ? = inconclusive; nt = not tested or not shown; & = joins results of further samples; [ ] = another dose, or the depositor's remark. No enrichment for hits; any-hit rate near 1%.

SMILES | D2 agonist | CtBP-E1A inh | TRPML1 inh | Six1-Eya2 inh | TRPML1 agonist | PINK1 modulator
Cc1cc(C(=O)CN2CCCC(C)C2)c(C)n1-c1ccc(F)cc1 (stereo unspecified) | -1.5 | ? | 6.9 | ? | -0.1 | -2.1%
Cc1ccc(S(=O)(=O)NC(C)C(=O)NC2CCCCCC2)cc1 (stereo unspecified) | 0.5 | 11.5 | -6.7 | 3.0 | -0.4 | 0.8%
COc1ccc2oc(=O)c(C(=O)NCc3ccc(F)cc3)cc2c1 | 4.0 | 5.0 | -10.6 | 6.4 | -0.7 | 4.8%
O=C1C(=O)N(c2ccccn2)C(c2cccc([N+](=O)[O-])c2)/C1=C(/O)c1ccc(Br)cc1 (stereo unspecified) | -4.2 | 11.2 | 41.9 | -2.6 | 0.2 | 0.2%
NC(=O)NC(=O)C(c1ccccc1)N1CCN(S(=O)(=O)Cc2ccccc2)CC1 (stereo unspecified) | -0.9 | -1.9 | 8.3 | 11.0 | 1.3 | -1.2%
CC(C)(C)OC(=O)N1CCC(NC(=O)c2[nH]cnc2C(=O)Nc2ccon2)CC1 | 3.1 | -21.8 | -1.6 | -25.2 | -0.1 | 2.2%
CCOc1ccc(OCC)c(NS(=O)(=O)c2ccc3c(c2)n(C)c(=O)c(=O)n3C)c1 | 0.6 | -0.1 | 4.0 | 1.3 | -0.7 | 6.8%[38.3 µM]
CC(=O)Nc1ccc(C=Cc2ccc([N+](=O)[O-])cc2)cc1 | 1.4 | 4.2 | -8.8 | 1.4 | 0.7 | 1.8%
CCC(CC)C(=O)OCc1cc(=O)n2nc(C3CC3)sc2n1 | nt | nt | 33.5 | nt | -0.3 | 0.4%
Cc1ccc2c(c1)C(=O)CC(O)(C(F)(F)F)O2 (stereo unspecified) | -1.2 | -1.9 | -13.4 | -3.3 | 0.3 | 0.8%
CC1=CCC2C(=O)N(c3cccc(C(=O)Nc4ccc(Cl)cc4)c3)C(=O)C2C1 (stereo unspecified) | 4.0 | 4.9 | -29.1 | 1.0 | 0.1 | 5.3%
CCOC(=O)N1CCc2c(sc3c2c(=O)n(-c2ccc(CC)cc2)c(=O)n3Cc2cccc(Cl)c2)C1 | nt | nt | -9.1 | nt | 0.8 | 1.6%
CCC(C)NCCCOc1c(C)cc(C)cc1Br (stereo unspecified) | -2.2 | 0.6 | 4.9 | 10.7 | -0.6 | 2.0%
Cc1ccc(Nc2c(-c3ccco3)nc3nc(C)cc(C)n23)cc1 | 3.7 | 3.9 | -13.1 | -3.5&-3.6 | 2.7&-0.8 | 2.9%&1.9%
Cc1ccc2oc(=O)c3cnn(CC(=O)N(C)c4ccc(F)cc4)c3c2c1 | nt | nt | 0.2 | nt | -1.2 | 2.4%
COc1ccc(NC(=S)N2CCCN(Cc3cccc(Cl)c3)C2)cc1 | -2.9 | -14.2 | 11.6 | -9.5 | -0.8 | 0.5%
CC(=O)N(C)c1cc([N+](=O)[O-])ccc1OCc1ccccc1 | -1.4 | -6.0 | -10.4 | 6.4 | 0.6 | -2.4%
COc1cc(C(=O)NC2CCN(Cc3nnnn3Cc3ccc(F)cc3)CC2)cc(OC)c1OC | -0.9 | -11.1 | 8.4 | 3.4 | 0.1 | 0.0%
O=C(COC(=O)CCC(=O)c1ccc(F)cc1)NC1CCCCC1 | 0.6 | 1.7 | 14.4 | 5.3 | -0.1 | 0.4%
O=S(=O)(c1ccccc1)[C@@]1(c2ccc(Br)cc2)C[C@@H]2ON=C(c3ccccc3)[C@@H]2C1 | -1.6 | 0.5 | -0.1 | -6.8 | -0.1 | 1.0%
COc1ccccc1C1(CC(=O)Nc2nccs2)CCOC(C(C)C)C1 (stereo unspecified) | -0.3 | 1.4 | 6.8 | -6.2 | 2.2 | ?
O=C(CCCN1C(=O)c2ccccc2C1=O)N1CCOCC1 | 0.1 | 5.6 | 16.6 | 3.1 | 0.2 | -1.2%
CC1=C(c2ccc(C(C)C)cc2)S(=O)(=O)N=C1N1CCC(C(=O)NCc2ccccc2)CC1 | nt | nt | -2.2 | nt | 2.2 | 11.5%
Cc1cccc(C)c1OCC(O)CNS(=O)(=O)c1ccccc1C(=O)N1CCCCC1 (stereo unspecified) | -0.8 | 5.5 | 39.9 | 6.8 | 0.1 | ?
CCN(CC)C(=S)SCc1csc(CC(=O)Nc2ccccc2C)n1 | -3.4 | -0.5 | -0.4 | -9.9 | 4.6 | 2.1%
COc1ccc(-n2c3c(c(=O)[nH]c2=O)C(NC(=O)c2ccccc2Cl)(C(F)(F)F)C(=O)N3)cc1 (stereo unspecified) | nt | nt | -14.9 | nt | 0.0 | -0.2%
CCn1cc(-c2csc(N)n2)c(C)n1 | -6.4 | 4.4 | 13.8 | -1.6 | -0.3 | 0.0%
CC(OC(=O)c1nn(C(C)C)c(=O)c2ccccc12)C(=O)Nc1ncc(Cl)cc1Cl (stereo unspecified) | -1.4 | -4.0 | -3.9 | 7.3 | 3.1 | 11.3%
O=S(=O)(Nc1ncccn1)c1ccc(NC(=S)NCc2cccnc2)cc1 | -2.5 | -14.3 | 18.3 | 4.4 | 1.8 | -1.8%
O=S(Cc1ccccc1)CC(O)(c1ccc(Cl)cc1)c1ccc(Cl)cc1 (stereo unspecified) | -2.6 | 0.6 | -0.4 | 0.7 | -0.4 | 21.4%[38.3 µM]
N=c1c2c(ncn1CCCO)Oc1c(ccc3ccccc13)C2c1ccccc1 (stereo unspecified) | -3.2 | nt | -14.6 | 17.3 | 0.4 | -1.0%
CCn1c2ccccc2c2cc(NC(=O)CSc3nnnn3-c3ccccc3)ccc21 | -0.5 | -0.7 | -9.3 | 7.3 | 1.3 | 8.9%
Cc1cc(C(=O)OCC(=O)Nc2nnc(C(C)C)s2)c2ccccc2n1 | 1.5 | 5.1 | 12.1 | 6.4 | 2.5 | 2.2%
COc1ccc(OC)c(CNS(=O)(=O)c2c(C(=O)N3CCC(C)CC3)c(C)n(C)c2C)c1 | nt | nt | -19.8 | nt | 1.9 | 1.1%
CCCC(=O)N1CCc2cc(OC)c(OC)cc2C1COc1ccccc1OC (stereo unspecified) | 0.7 | -8.7 | -3.7&-10.8 | -14.6 | 1.5&1.3 | -1.8%&-3.1%
CCOC(=O)Cn1c(=N)n(CCOc2ccc(OC)cc2)c2ccccc21 | -2.1 | -1.1 | -6.8&-2.5 | -0.3 | -1.3&0.3 | 1.7%&0.5%
CCCc1cc(=O)[nH]c(SCC(=O)Nc2ccc(C(=O)Nc3ccccc3OC)cc2)n1 | -6.9 | -0.8 | 16.6 | 0.5 | 0.3 | 3.4%
Cc1cc2[nH]c3ccccc3c2cn1 | 3.3 | -7.5 | 22.6 | 1.6 | -0.7 | 1.2%
CN1CCN(S(=O)(=O)c2cccc(C(=O)Oc3ccc(C(C)(C)C)cc3)c2)CC1 | -1.1 | -15.5 | 78.9 | -10.6 | 0.5 | 3.8%
CCC(C)C(=O)Nc1nccs1 (stereo unspecified) | 0.1 | -12.2 | -4.7 | 6.9 | 0.7 | -1.5%
O=S(=O)(NCC1CCCO1)c1cccc(C(F)(F)F)c1 (stereo unspecified) | 1.1 | -1.2 | -3.7 | 2.6 | -0.4 | 0.6%
COC(=O)c1ccc(SCC(=O)N2CCC(C)CC2)c([N+](=O)[O-])c1 | 0.1 | -2.3 | 0.7 | -3.6 | -0.4 | 3.2%
CC1=CC2=NC(=O)/C(=C\c3cn(C)c4ccccc34)C(=N)N2O1 | -2.6 | 5.5 | 2.5 | -1.4 | 0.4 | ?
C#CCOC(=O)CN1C(=O)c2cccc3cccc(c23)C1=O | 0.5 | -1.2 | -5.9 | -4.8 | -1.3 | -0.3%
CCOCCCNC(=O)C(NC(=O)CNC(C)=O)c1ccc(C)cc1 (stereo unspecified) | -0.8 | -1.6 | -16.8 | 10.4 | 0.3 | 1.3%
Nc1c(C(=O)N2CCOCC2)sc2nc(N3CCOCC3)c3c(c12)CCCC3 | -5.1 | nt | 0.4 | -2.3 | -0.9 | -0.5%
COc1cc(CC(=O)OCC(=O)Nc2ccc(N(C)C)cc2)cc(OC)c1OC | 3.7 | nt | 11.3 | -2.8 | -0.2 | 1.2%
O=C(CSc1ccccn1)N1CCN(c2ncc(C(F)(F)F)cc2Cl)CC1 | -0.5 | 9.2 | -8.9 | 9.2 | -0.6 | 1.9%

Arranged by value in D2 agonist (smallest number first): four from the list above
Structure | D2 agonist
CC1=CC2=NC(=O)/C(=C\c3cn(C)c4ccccc34)C(=N)N2O1 | -2.6
CN1CCN(S(=O)(=O)c2cccc(C(=O)Oc3ccc(C(C)(C)C)cc3)c2)CC1 | -1.1
CCOCCCNC(=O)C(NC(=O)CNC(C)=O)c1ccc(C)cc1 (stereo unspecified) | -0.8
COc1cc(CC(=O)OCC(=O)Nc2ccc(N(C)C)cc2)cc(OC)c1OC | 3.7

Next entries:
SMILES | D2 agonist | CtBP-E1A inh | TRPML1 inh | Six1-Eya2 inh | TRPML1 agonist | PINK1 modulator
O=C(Cc1ccc(F)cc1)NCCS(=O)(=O)N1CCN(c2cccc(Cl)c2)CC1 | 2.8 | -21.2 | 4.6 | 4.4 | -0.6 | 3.3%
Cc1cccc(NC(=O)Nc2ccc(Oc3c(F)c(F)c(F)c(F)c3F)cc2)c1 | -3.5 | -1.3 | -10.7 | 2.7 | -0.4 | -2.3%[38.3 µM]
CC(=O)N1CCN(C(=O)COc2ccc(Br)cc2)CC1 | -1.5 | -6.3 | 15.8 | 7.2 | -0.5 | 0.5%
CN(Cc1ccccc1)C(=O)CN1C(=O)c2ccc([N+](=O)[O-])cc2C1=O | -0.9 | -4.5 | 7.4 | 1.1 | 1.6 | -0.6%
O=C1NC(=S)SC1=Cc1cccs1 | -6.5 | -24.5 | -6.7 | -3.7 | -0.6 | 29.9%
CC1=CC(c2ccccc2)=Nc2ccc(C)cc2N1 | 1.7 | nt | -7.1 | 5.0 | 0.6 | -0.8%
COc1cc(/C=C2\C(=O)ON=C2c2ccccc2)cc(Br)c1O | -6.9 | -0.7 | 9.4 | -6.7 | 1.1 | -1.4%
COc1ccccc1/C=C/CN1CCN(c2ccccc2)CC1 | 11.9 | 3.5 | -0.7 | ? | 1.6 | -5.9%[38.3 µM]

Quoted at random: 3 records from the list.
SMILES | D2 agonist | CtBP-E1A inh | TRPML1 inh | Six1-Eya2 inh | TRPML1 agonist | PINK1 modulator
COc1ccccc1C1(CC(=O)Nc2nccs2)CCOC(C(C)C)C1 (stereo unspecified) | -0.3 | 1.4 | 6.8 | -6.2 | 2.2 | ?
CC1=C(c2ccc(C(C)C)cc2)S(=O)(=O)N=C1N1CCC(C(=O)NCc2ccccc2)CC1 | nt | nt | -2.2 | nt | 2.2 | 11.5%
Cc1cc(C(=O)OCC(=O)Nc2nnc(C(C)C)s2)c2ccccc2n1 | 1.5 | 5.1 | 12.1 | 6.4 | 2.5 | 2.2%
